PKD1 kinase inh = blocks activity of human protein kinase D1; Q15139; PKD1 kinase fluorescence polarization assay; inhibition, %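 (about 10 µM by stock and volumes)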; 200,000 compounds, 0.056% hits; AID 797;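 active means inhibition of 50% or more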;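 further: controls were vehicle for no effect and a reference inhibitor for full effect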
INS promoter inh = TRM-6 insulin promoter activity inhibition; TRM-6 cells (human fetal islet line), insulin promoter-eGFP reporter, imaging; reporter expression induced with tamoxifen; AID 1273; 130,000 compounds, 0.9% hits; inhibition, % at 2 µM;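 active means inhibition above the mean plus 3 SD, with well images judged a real hit on visual review, cut at about 60% in these data, passing the limit was not always enough; inconclusive means inhibition over the cutoff but images rejected on review; inactive means inhibition not above the cutoff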
GALR2 agonist = activates the human galanin receptor 2; O43603; GALR2-expressing cells, agonist activation read-out; activation, %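 (tested at 5 µM)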; 140,000 compounds, 0.48% hits; AID 803;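 active means above mean plus 3 SD of all compounds, about 5% in these data, not always enough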;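 further: 0% = vehicle buffer wells and 100% = reference agonist at full effect; tested in CHO reporter cells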
Target sequence (O43603 whole entry, looked up): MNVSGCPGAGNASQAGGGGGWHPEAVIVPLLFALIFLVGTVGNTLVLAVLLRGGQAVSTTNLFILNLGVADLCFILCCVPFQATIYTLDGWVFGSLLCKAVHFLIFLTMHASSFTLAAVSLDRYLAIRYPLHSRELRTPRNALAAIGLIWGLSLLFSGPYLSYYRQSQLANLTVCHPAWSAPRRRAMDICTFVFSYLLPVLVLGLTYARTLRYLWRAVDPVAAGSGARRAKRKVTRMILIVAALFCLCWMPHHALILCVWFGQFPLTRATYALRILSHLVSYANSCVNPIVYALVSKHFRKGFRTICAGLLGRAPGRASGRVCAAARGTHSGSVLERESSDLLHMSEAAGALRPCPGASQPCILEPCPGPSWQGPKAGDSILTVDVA
RGS16-Gao HTS = regulators of human RGS16-Galphao interaction | AID 1441 | bead-based flow cytometry RGS16-Galphao binding, fluorescence; actives lie on both sides | 220,000 compounds, 0.38% hits | binding response (% of control), % at 10 µM | O15492+P09471;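 active means below 25% or above 175%, edge rows of some plates excepted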;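 further: Galphao activated by GDP with aluminum fluoride before binding; 100% = wells without compound and 0% = beads without RGS; some results beyond the cut were filed as inactive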
Target sequence (O15492 whole entry, looked up): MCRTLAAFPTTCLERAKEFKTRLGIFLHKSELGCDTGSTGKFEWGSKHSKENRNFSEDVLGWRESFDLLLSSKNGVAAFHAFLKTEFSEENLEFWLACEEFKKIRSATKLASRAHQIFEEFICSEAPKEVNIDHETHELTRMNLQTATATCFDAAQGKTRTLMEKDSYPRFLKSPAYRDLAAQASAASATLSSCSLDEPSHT
Target sequence (P09471 whole entry, looked up): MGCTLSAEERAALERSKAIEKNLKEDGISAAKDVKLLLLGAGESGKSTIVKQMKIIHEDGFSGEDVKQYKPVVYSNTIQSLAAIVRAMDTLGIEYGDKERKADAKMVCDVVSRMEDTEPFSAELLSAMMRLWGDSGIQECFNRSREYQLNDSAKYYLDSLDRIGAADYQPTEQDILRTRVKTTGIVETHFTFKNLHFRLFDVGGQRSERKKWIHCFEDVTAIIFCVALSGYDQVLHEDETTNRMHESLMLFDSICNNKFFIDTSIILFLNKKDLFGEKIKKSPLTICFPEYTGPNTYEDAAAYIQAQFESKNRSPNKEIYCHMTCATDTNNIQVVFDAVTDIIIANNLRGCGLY
HSV augment = HSV replication enhancement. HSV replication augmentation in cells, fold increase. maximum fold increase. 220,000 compounds, 0.005% hits;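 active means peak rise of 1.5-fold or more in the series; inconclusive means self-fluorescent or not available for retest; tested in PC3 cells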;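 further: first round at 10 µM; read as green reporter fluorescence; hits show the peak of a series up to 25 µM; 1 = signal of infected wells without compound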
INS promoter inh cell count = second read-out of INS promoter inh, no call of its own (marks repeat the call); normalized cell count, %; measured here: cell count, toxicity; reference of the scale not given here;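 cells exposed to compound for 48 h; stained nuclei by imaging scaled within each plate; lower means fewer cells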
HSV augment primary fold = recorded beside HSV augment, whose call it bears; fold increase; compound at 10 µM; measured here: primary screen fold increase 10 uM; tested in PC3 cells;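 GFP signal in the first replicate; 1 = infected wells without compound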
* hit, by the source's call; i = inactive; u = inconclusive; x = no result given.

compound	INS promoter inh	RGS16-Gao HTS	PKD1 kinase inh	HSV augment primary fold	HSV augment	GALR2 agonist	INS promoter inh cell count
CC(Oc1ccc(-c2ccccc2)c(F)c1)c1ccn(S(=O)(=O)c2ccc(Cl)cc2)n1 (configuration not stated)	25	99	-8	0.91	i	0.3	67
Cc1ccccc1C(=O)NC(=S)Nc1ccccc1[N+](=O)[O-]	-12	105	-8	0.92	i	x	116
O=C(Nc1cccc(S(=O)(=O)N2CCOCC2)c1)c1cc2c(s1)CCC2	64	103	0	0.59	i	-1.8	119
CCCc1nc2sc3ccccc3c(=O)c2c(=O)n1Cc1ccc(OC)cc1	x	95	x	0.91	i	x	x
NC(=O)/C=C\C(=O)Nc1cccc(C(F)(F)F)c1	37	95	4	0.79	i	-0.9	143
Clc1ccc(OCc2nn3c(C4CCCCC4)nnc3s2)cc1	x	95	-8	1	i	-1.8	x
Cc1ccc(C(C(=O)NC(C)(C)C)N(Cc2ccccc2)C(=O)c2snc(C(N)=O)c2N)o1 (configuration not stated)	27	92	-1	1	i	x	35
COc1ccc(S(=O)(=O)N(CCc2ccccc2)CC(=O)NCCCO)cc1	-15	97	-7	0.93	i	-2.3	100
CCOc1ccc(-c2nc(C#N)c(NCc3ccc4c(c3)OCO4)o2)cc1	x	105	7	0.79	i	-2.4	x
Cc1cccc(C(=O)c2cnc3ccccc3c2-c2ccccc2)c1	-13	99	2	0.97	i	-0.8	74
O=c1ccc2cc3c([nH]c4ccc(Br)cc43)oc-2c1O	-78	42	1	1.3	i	-0.7	58
CC1(C(=O)OCC(=O)NC(=O)NCc2ccccc2)CC1(Cl)Cl (configuration not stated)	x	101	5	1.1	i	x	x
Cc1ccc(S(=O)(=O)N2CCC(C(=O)N3CCC[C@H]3C(=O)NCc3ccco3)CC2)cc1	-12	100	12	0.97	i	-1.1	97
CCCC(=O)Nc1nnc(Sc2ccc(N(C)C)cc2)s1	-21	108	-9	0.91	i	-1.4	17
O=C(CSc1nccc(=O)[nH]1)Nc1ccc(Br)c(Cl)c1	-376	98	-4	1.1	i	-0.8	91
Cc1cccc(C)c1OCC(O)CN1CCN(c2ccccc2)CC1 (configuration not stated)	x	99	-5	0.95	i	x	x
Cc1cc(/C=N/NC(=O)CC#N)c(C)n1-c1ccc([N+](=O)[O-])cc1	x	100	-6	0.68	i	x	x
O=C(Nc1ccc2c(c1)OCO2)N1CCN(C/C=C/c2ccccc2)CC1	21	108	-8	1.1	i	-2.3	127
COc1ccc(-c2cc(C(=O)NN)[nH]n2)cc1	x	55	-8	0.77	i	-0.3	x
CC(=O)C1=C(Nc2ccc(C)cc2)CC(C)(O)C(C(C)=O)C1c1ccco1 (configuration not stated)	-103	97	3	0.99	i	-1.6	69
O=[N+]([O-])c1ncn(Cc2ccccc2Cl)n1	x	101	-4	0.91	i	-0.6	x
O=C(O)CC(c1cccc(Cl)c1)n1cccc1 (configuration not stated)	31	109	-4	1.2	i	-1.4	126
O=C(N/N=C\c1coc2ccccc2c1=O)c1ccco1	x	91	x	0.84	i	x	x
COc1cc2c(cc1OC)CN(C(=S)Nc1ccc(Cl)cc1)CC2	x	98	x	0.97	i	x	x
O=C(CSc1nc2ccccc2nc1SCC(=O)N1CCOCC1)N1CCOCC1	35	234	-9	0.92	i	-1.3	24
C/C(=N\NC1=NCCN1)c1ccc(Cl)cc1	x	94	x	0.83	i	x	x
CCOc1cccc(CNn2cnnc2)c1OCc1ccccc1Cl	-17	101	-1	1	i	-1.6	87
CCCCSc1nnc(CNC(=O)C23CC4CC(CC(C4)C2)C3)n1Cc1ccccc1	x	109	-2	x	x	0.7	x
O=[N+]([O-])c1cc(S(=O)(=O)N2CCCCCC2)ccc1Cl	x	99	-9	0.78	i	x	x
O=C(C1CC1)N1CCN=C1SCc1ccccc1Cl	x	101	-2	1.1	i	-2.3	x
COc1cccc2sc(Nc3nc(-c4cc5ccccc5oc4=O)cs3)nc12	x	96	19	x	x	0.0	x
O=c1[nH]c2ccccc2nc1/C=C(\O)C(F)F	-10	104	-6	x	u	-1.2	121
CSCCC(NC(=O)c1ccc(Cl)cc1Cl)C(=O)OCC(N)=O (configuration not stated)	x	98	x	0.97	i	x	x
Fc1ccc(-c2n[nH]c(=S)c3ccccc23)cc1	36	102	-2	0.95	i	x	80
CCCC1(CCC)NC(=O)N(CC(=O)Nc2cccc(OC)c2)C1=O	x	101	-9	0.99	i	-0.6	x
CCOC(=O)c1cc(NC(=O)c2c(C)noc2C)cc(C(=O)OCC)c1	66	100	-8	0.85	i	-0.5	81
N#Cc1nc(-c2ccccc2Cl)oc1N1CCCCC1	x	102	4	0.91	i	-0.8	x
COc1cccc(NC(=O)N2CCCC2C(=O)NC(C)C)c1 (configuration not stated)	6	109	-6	0.93	i	-0.9	52
COc1cc(NC(=O)c2ccccc2[N+](=O)[O-])ccc1NC(=O)C(C)C	x	111	0	1.1	i	0.1	x
O=C(CSc1ncnc2sc(-c3ccccc3)cc12)NC1CCS(=O)(=O)C1 (configuration not stated)	x	101	-3	0.95	i	x	x
Clc1ccccc1CNc1ncnc2nc[nH]c12	x	103	-7	0.82	i	-1.1	x
CCc1ccc(-n2c(C)cc(/C=N/NC(=O)OC)c2C)cc1	8	101	7	1	i	-1.5	111
Cc1noc2ncnc(Sc3ccc(Cl)cc3)c12	18	98	10	0.49	i	-2.4	99
O=C(CSc1ncccn1)NN=C1CCCCCCC1	-20	102	-5	1.1	i	-2.4	70
CCCCCCCn1c(=O)c(C(=O)OC)c(N)c2ccccc21	x	102	x	0.77	i	x	x
COc1cccc(-c2noc(-c3ccc4c(c3)OCO4)n2)c1	-64	106	-4	0.93	i	x	173
COC(=O)C1=C(C)N(Cc2ccco2)C(=O)C1	14	119	3	0.97	i	2.4	75
S=C(NCc1ccco1)N1CCN(c2nc(-c3ccc(Cl)cc3)cs2)CC1	-50	93	2	0.93	i	x	106
CCSC1=C(C#N)C(c2ccc(C)s2)CC(=O)N1 (configuration not stated)	x	x	-3	0.88	i	-1.0	x
Cn1cccc1CC(=O)NNC(=S)Nc1ccc(Cl)cc1	21	107	-5	1	i	-1.4	137

Next section:
compound	INS promoter inh	RGS16-Gao HTS	PKD1 kinase inh	HSV augment primary fold	HSV augment	GALR2 agonist	INS promoter inh cell count
Cc1ccc(C(C(=O)NC2CCCC2)N(Cc2ccc(F)cc2)C(=O)c2csnn2)o1 (configuration not stated)	-12	106	-13	1	i	-1.5	98
CN(C)/C=C(\c1cnc(Cl)s1)S(=O)(=O)c1ccccc1	x	99	-2	1.1	i	x	x
O=C(Cc1ccccc1Cl)N1CCN(c2ccccn2)CC1	x	104	5	0.99	i	x	x
CCC(CC)=NNc1ccc(S(N)(=O)=O)cc1[N+](=O)[O-]	x	100	x	0.77	i	x	x
Cc1ccc2c(c1)c1c(n2CC(O)Cn2nc(C)c(Br)c2C)C(=O)CCC1 (configuration not stated)	13	98	3	1.1	i	-0.7	62
Cc1cc2ccccc2n2c(SCC(=O)Nc3ccc(S(=O)(=O)N4CCC(C)CC4)cc3)nnc12	-24	81	7	0.89	i	-0.6	80
CCOC(=O)N1CCN(C(=S)Nc2cc(S(=O)(=O)N3CCOCC3)ccc2Cl)CC1	x	102	3	1	i	x	x
Cc1ccc(N(C(=O)Cn2nnc3ccccc32)C(C(=O)NCc2ccco2)c2cccnc2)cc1 (configuration not stated)	x	95	-11	0.91	i	-1.0	x
S=C(NCC1CCCO1)N1CCN(c2ccc(Cl)c(Cl)c2)CC1 (configuration not stated)	-16	100	1	1.1	i	x	105
CCc1sc(C(=O)NCCc2ccc(S(N)(=O)=O)cc2)cc1Br	x	102	-4	0.88	i	x	x

Copied from the listing (two entries):
compound	INS promoter inh	RGS16-Gao HTS	PKD1 kinase inh	HSV augment primary fold	HSV augment	GALR2 agonist	INS promoter inh cell count
CN(C)/C=C(\c1cnc(Cl)s1)S(=O)(=O)c1ccccc1	x	99	-2	1.1	i	x	x
O=C(Cc1ccccc1Cl)N1CCN(c2ccccn2)CC1	x	104	5	0.99	i	x	x

(cont.)
compound	INS promoter inh	RGS16-Gao HTS	PKD1 kinase inh	HSV augment primary fold	HSV augment	GALR2 agonist	INS promoter inh cell count
CC(CCc1ccccc1)N1CCN(Cc2ccccc2)CC1 (configuration not stated)	14	104	-5	0.96	i	-0.1	121
CCOC(=O)c1cnc2c(C)cccc2c1NCc1ccco1	68*	93	-2	0.94	i	0.0	129*
COc1cccc(-n2c(SCC(N)=O)nc3ccccc3c2=O)c1	-43	93	-1	x	x	x	124
O=C(Cn1nnc2ccccc21)N/N=C\C=C\c1ccccc1	-14	100	10	0.72	i	-4.4	97
CCCCN1C(=O)C(O)=C(C(C)=O)C1c1ccc(OC)cc1OC (configuration not stated)	x	106	-4	0.98	i	-3.2	x
O=C(c1cccc(S(=O)(=O)NCc2ccccc2)c1)N1CCN(Cc2ccccc2)CC1	13	99	-8	1.1	i	-3.1	116
CCn1nnc(NC(=O)c2c(OC)cccc2OC)n1	-44	110	-11	1	i	-1.1	98
C[C@H](N)c1nnc(SCC(=O)N(C)C)o1	-33	98	6	0.7	i	-5.8	143
CCCn1nc(NC(=O)C2CCCO2)c2cc3ccc(C)cc3nc21 (configuration not stated)	x	97	x	1	i	x	x
COc1ccccc1N1CCN(CCCCOc2cccc3ccccc23)CC1	-25	132	17	0.9	i	-2.1	95
CCOC(=O)C1C(=O)NC(C)C1c1ccccc1 (configuration not stated)	x	99	-8	1.1	i	-1.5	x
CSc1nc2c(c(-c3ccccc3)c1C#N)CCC2	-411	x	0	0.79	i	2.9	66
COc1ccc(Cl)cc1-c1n[nH]c(=S)n1C1CCCCC1	10	98	3	x	u	-2.2	131
COc1ccc(C2(CNC(=O)Cc3ccc(OC)c(OC)c3)CCCC2)cc1	x	98	2	1.1	i	x	x
Cc1cccc(NC(=S)NC(NC(=O)OCc2ccccc2)C(Cl)(Cl)Cl)c1 (configuration not stated)	x	107	-2	0.86	i	-3.4	x
C=CCOc1ccc2c(c1)C(=NO)c1cc(OCC=C)ccc1-2	10	99	-2	0.89	i	1.6	119
O=C(Nc1ccccc1F)Nc1ccccc1F	16	99	2	1.2	i	x	108
O=C(CN1C(=O)c2ccccc2S1(=O)=O)NCc1ccccc1Cl	x	103	6	0.73	i	0.2	x
O=C(Nc1ccon1)C12CC3CC(C1)CC(n1cnc([N+](=O)[O-])n1)(C3)C2	x	103	-1	0.84	i	x	x
Cc1ccc(OCC(=O)N/N=C/C=C/c2ccco2)cc1C	-58	3.6*	-2	1.1	i	0.0	92
CC(=O)Nc1cccc(C(=O)N/N=C/c2cccnc2)c1	x	104	-2	0.94	i	x	x
COC(=O)CN(C(=S)Nc1ccccc1)C1CC(=O)N(c2ccc(OC)cc2)C1=O (configuration not stated)	-7	98	-1	0.91	i	-3.0	128
CCCCCSc1nnc(-c2cc(Br)ccc2N)c(=O)[nH]1	0	109	2	0.89	i	-1.7	70
O=C(N/N=C/c1ccc([N+](=O)[O-])o1)c1cc2ccccc2o1	x	98	x	0.68	i	x	x
Cc1cccc(NC(=O)NC2CC3CCC(C2)N3Cc2ccco2)c1 (configuration not stated)	x	116	2	0.87	i	x	x
CN(C)c1nc(-c2cccs2)cc(C(F)(F)F)c1C#N	x	89	x	1.1	i	x	x
O=C(NCCCc1ccccc1)C1CCC(CNc2c(N3CCCCC3)c(=O)c2=O)CC1 (configuration not stated)	x	96	x	0.79	i	x	x
Cc1nc2ccc(NC(=S)N3CCC(C)CC3)cc2nc1C	x	102	-3	0.89	i	x	x
FC(F)(F)c1cc(-c2cccs2)nc(-n2cc(Cl)cn2)n1	-32	101	4	0.86	i	-3.5	108
CCOc1ccc(-c2csc(Cn3c(CN4CCN(C)CC4)nc4ccccc4c3=O)n2)cc1	x	97	-6	1	i	2.7	x
O=C1C=C(O)c2cccc(O)c2C1=O	x	97	x	1.1	i	x	x
O=C(O)c1ccc2c(c1)[C@@H]1C=CC[C@@H]1[C@H](c1ccccn1)N2	x	x	3	0.87	i	-1.8	x
Cc1ccc(C(=O)c2cc3ccccc3o2)cc1[N+](=O)[O-]	-20	106	0	0.9	i	x	121
CC1CCN(c2oc(-c3ccccc3F)nc2C#N)CC1	x	99	-4	1	i	-1.1	x
COCCNC(=O)CN1CCC(NC(=O)c2ccco2)CC1	-12	114	6	0.98	i	x	72

Random draw from the library (roughly 1.3% active in at least one column).
